PV pol inh = poliovirus RdRp elongation inhibitors, primary screen, biochemical, fluorescence polarization, total intensity. 0.66% of 150,000 active. poliovirus polymerase elongation; stronger effect = lower value. Genome polyprotein (Poliovirus type 1 (strain Mahoney)), P03300. % elongation, % (compound at 16.7 µg/mL); in the data active = % elongation below about 90%; also: some results filed as inactive read as strong as hits
Target sequence (P03300 1749-2209 limits assumed): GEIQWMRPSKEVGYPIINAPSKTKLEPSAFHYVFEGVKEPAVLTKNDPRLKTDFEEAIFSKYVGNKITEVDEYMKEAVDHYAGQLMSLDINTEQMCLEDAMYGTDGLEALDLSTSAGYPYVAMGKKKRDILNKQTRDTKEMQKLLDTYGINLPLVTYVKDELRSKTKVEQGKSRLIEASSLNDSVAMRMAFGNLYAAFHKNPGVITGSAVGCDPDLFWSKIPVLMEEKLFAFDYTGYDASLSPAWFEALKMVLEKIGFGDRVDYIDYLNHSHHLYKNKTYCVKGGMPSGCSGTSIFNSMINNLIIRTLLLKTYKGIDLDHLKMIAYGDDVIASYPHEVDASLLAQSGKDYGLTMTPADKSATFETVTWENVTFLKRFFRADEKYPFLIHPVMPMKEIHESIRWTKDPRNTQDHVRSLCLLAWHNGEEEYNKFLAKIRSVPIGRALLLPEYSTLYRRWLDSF
PV pol inh intensity = further read-out of PV pol inh, marked with its call; % elongation; measured here: total intensity read-out; formula for this scale not given here;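 total fluorescence in place of polarization; lower means less elongation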
Numbers without * were called inactive. A portion of the library (hit frequency here may not be typical).

SMILES	PV pol inh	PV pol inh intensity
Cc1ccc(C)c(-n2c3nc(=O)[nH]c(=O)c-3cc3c(C)nn(-c4ccccc4)c32)c1	110	104
COc1ccc(C2CC(=O)c3cnc4c(-c5ccccc5)c(C)nn4c3C2)c(OC)c1 (stereo not given)	108	111
Cc1c(Cl)ccc2sc(NC(=O)c3ccc(S(=O)(=O)N4CCCC4)cc3)nc12	111	118
CCOC(=O)N1CCN(Cc2nc3cc(NC(=O)c4ccc(F)cc4)ccc3n2C(C)C)CC1	98	102
CN(C)c1ccc(CNS(=O)(=O)c2csc(C(N)=O)c2)cc1	104	110
Cc1cn2c(=O)cc(COC(=O)C(C)Oc3ccccc3)nc2s1 (stereo not given)	103	107
Cc1ccc(C(=O)CCC(=O)Nc2ccc(C)cc2C)cc1	100	94
O=C(C1COc2ccccc2O1)N(Cc1cccnc1)c1nc2ccc(F)cc2s1 (stereo not given)	106	104
COc1ccc(NC(=O)CN2C(=O)CCc3cc(S(=O)(=O)N4CCOCC4)ccc32)cc1Cl	108	106
Cc1ccc(OCCSc2nc3ccc(NC(=O)c4ccco4)cc3s2)cc1	100	104
CCc1cccc(NS(=O)(=O)c2ccc3c(c2)n(C)c(=O)c(=O)n3C)c1	104	104
O=C(c1ccc2c(c1)N(Cc1cccc(Cl)c1)C(=O)c1ccccc1S2)N1CCOCC1	113	111
COc1ccc(N2CCN(C(=O)c3cn(C4CCCCC4)c(=O)c4c3c3ccccc3n4C)CC2)cc1	111	113
CCOC(=O)CC(NC(=O)Cn1nnc(-c2ccccc2C)n1)c1ccc(OC)cc1 (stereo not given)	101	103
COc1ccc(Cl)cc1NC(=O)c1oc2ccc(S(=O)(=O)N3CCCCC3)cc2c1C	108	108
Cc1ccc(NC(=O)Cn2c(=O)n(CCCCC(=O)NCCc3ccccc3)c(=O)c3ccccc32)cc1	108	105
CCOc1ccc(-n2cc(-c3ccccc3)c3c(NCc4ccccc4)ncnc32)cc1	108	114
Cc1cccc(NC(=O)CSc2nc3c([nH]c4ccccc43)c(=O)n2C)c1C	100	104
CCOc1ccccc1Nc1nc2ccccc2c2nncn12	106	108
CCSc1nc2n(n1)C(c1ccc(C(=O)O)cc1)C(C(=O)Nc1ccccc1C)=C(C)N2 (stereo not given)	107	112
CCOc1cc(C(=O)OCc2cc(=O)n3nc(C4CC4)sc3n2)cc(OCC)c1OCC	105	111
CCCN(CCC)S(=O)(=O)c1ccc2c(c1)N(CC(=O)NCc1ccc(F)cc1Cl)C(=O)CS2	105	107
COc1ccc(NC(=O)CCCc2nnc3n(C(C)C)c(=O)c4sccc4n23)cc1Cl	119	113
C=C(C)Cn1c(SCC(=O)Nc2cccc(Cl)c2)nc2sc3c(c2c1=O)CCCC3	100	103
COc1ccc(-c2cc(-c3ccccc3)nc(SCC(=O)Nc3ccccc3F)c2C#N)cc1	106	106
CC(=O)c1ccc(NS(=O)(=O)c2ccc3c(c2)NC(=O)CCS3)cc1	107	111
COc1ccc(-c2nc3c(c(SCC(=O)Nc4cc(C)cc(C)c4)n2)Cc2c(CO)cnc(C)c2O3)cc1	105	113
CCOc1ccc(C(c2c(O)cc(C)n(Cc3ccco3)c2=O)N2CCN(c3ccccc3)CC2)cc1 (stereo not given)	107	112
COc1ccc(N(CC(=O)N2CCc3ccccc3C2)S(=O)(=O)c2ccc(C)cc2)cc1Cl	105	106
Cc1ccc(CNC(=O)c2ccc3c(c2)nc(C)n3-c2cc(C)cc(C)c2)cc1	104	109
COc1ccccc1Nc1c2c(nc3ccc(NC(=O)/C=C/c4cc(OC)c(OC)c(OC)c4)cc13)CCCC2	98	97
CCc1ccc(CNC(=O)c2cnc3c(C)cccn3c2=O)cc1	106	106
O=C(CCn1cnc2onc(-c3ccc(F)cc3)c2c1=O)N1CCN(c2ccccc2F)CC1	104	105
CC(C)c1ccc(NC(=O)C2CCC(CNS(=O)(=O)c3ccc4c(c3)CCCC(=O)N4)CC2)cc1 (stereo not given)	102	105
CC(=O)NS(=O)(=O)c1ccc(NC(=O)c2cccn(Cc3ccc(Cl)cc3)c2=O)cc1	111	113
COc1cc(OC)c(N(C)C(=O)Cn2ncc3c([nH]c4ccccc43)c2=O)cc1Cl	107	115
CCOc1cc2[nH]c(=O)n(CCC(=O)N3CCN(c4cccc(Cl)c4)CC3)c(=O)c2cc1OCC	109	109
Cc1nc2ccc(S(=O)(=O)N(CC(=O)Nc3ccc(F)cc3F)Cc3ccccc3)cc2s1	110	109
CC(C)c1ccc(C2c3c(-c4ccccc4O)n[nH]c3C(=O)N2CCc2ccccc2)cc1 (stereo not given)	108	111
COc1ccc(Cn2ccn(Cc3cccc(OC)c3)c(=O)c2=O)cc1	105	99
CCOc1ccccc1NC(=O)Cn1c(=O)n(-c2ccc(Cl)cc2)c(=O)c2oc3ccccc3c21	104	105
COc1ccccc1C1C=C(c2ccc(F)cc2)Nc2nc(-c3ccc(Cl)cc3)nn21 (stereo not given)	114	116
Cc1ccc(CNC(=O)CCCCCn2c(=O)c3sccc3n(CC(=O)N3CCCCC3C)c2=O)cc1 (stereo not given)	107	107
CCc1ccc(NC(=O)CCn2nc(C)c(S(=O)(=O)N3CCCCC3)c2C)cc1	103	100
CCc1ccc(NC(=O)C2CCCN(S(=O)(=O)c3c(C)[nH]c(=O)[nH]c3=O)C2)cc1 (stereo not given)	100	102

Some of the entries above, set out differently:
| compound | PV pol inh | PV pol inh intensity |
| --- | --- | --- |
| CCOc1ccccc1Nc1nc2ccccc2c2nncn12 | 106 | 108 |
| CCSc1nc2n(n1)C(c1ccc(C(=O)O)cc1)C(C(=O)Nc1ccccc1C)=C(C)N2 (stereo not given) | 107 | 112 |
| CCOc1cc(C(=O)OCc2cc(=O)n3nc(C4CC4)sc3n2)cc(OCC)c1OCC | 105 | 111 |
| CCCN(CCC)S(=O)(=O)c1ccc2c(c1)N(CC(=O)NCc1ccc(F)cc1Cl)C(=O)CS2 | 105 | 107 |
| COc1ccc(NC(=O)CCCc2nnc3n(C(C)C)c(=O)c4sccc4n23)cc1Cl | 119 | 113 |
| C=C(C)Cn1c(SCC(=O)Nc2cccc(Cl)c2)nc2sc3c(c2c1=O)CCCC3 | 100 | 103 |
| COc1ccc(-c2cc(-c3ccccc3)nc(SCC(=O)Nc3ccccc3F)c2C#N)cc1 | 106 | 106 |
| CC(=O)c1ccc(NS(=O)(=O)c2ccc3c(c2)NC(=O)CCS3)cc1 | 107 | 111 |
| COc1ccc(-c2nc3c(c(SCC(=O)Nc4cc(C)cc(C)c4)n2)Cc2c(CO)cnc(C)c2O3)cc1 | 105 | 113 |
| CCOc1ccc(C(c2c(O)cc(C)n(Cc3ccco3)c2=O)N2CCN(c3ccccc3)CC2)cc1 (stereo not given) | 107 | 112 |
| COc1ccc(N(CC(=O)N2CCc3ccccc3C2)S(=O)(=O)c2ccc(C)cc2)cc1Cl | 105 | 106 |
| Cc1ccc(CNC(=O)c2ccc3c(c2)nc(C)n3-c2cc(C)cc(C)c2)cc1 | 104 | 109 |
| COc1ccccc1Nc1c2c(nc3ccc(NC(=O)/C=C/c4cc(OC)c(OC)c(OC)c4)cc13)CCCC2 | 98 | 97 |
| CCc1ccc(CNC(=O)c2cnc3c(C)cccn3c2=O)cc1 | 106 | 106 |
| O=C(CCn1cnc2onc(-c3ccc(F)cc3)c2c1=O)N1CCN(c2ccccc2F)CC1 | 104 | 105 |
| CC(C)c1ccc(NC(=O)C2CCC(CNS(=O)(=O)c3ccc4c(c3)CCCC(=O)N4)CC2)cc1 (stereo not given) | 102 | 105 |
| CC(=O)NS(=O)(=O)c1ccc(NC(=O)c2cccn(Cc3ccc(Cl)cc3)c2=O)cc1 | 111 | 113 |
| COc1cc(OC)c(N(C)C(=O)Cn2ncc3c([nH]c4ccccc43)c2=O)cc1Cl | 107 | 115 |
| CCOc1cc2[nH]c(=O)n(CCC(=O)N3CCN(c4cccc(Cl)c4)CC3)c(=O)c2cc1OCC | 109 | 109 |
| Cc1nc2ccc(S(=O)(=O)N(CC(=O)Nc3ccc(F)cc3F)Cc3ccccc3)cc2s1 | 110 | 109 |
| CC(C)c1ccc(C2c3c(-c4ccccc4O)n[nH]c3C(=O)N2CCc2ccccc2)cc1 (stereo not given) | 108 | 111 |
| COc1ccc(Cn2ccn(Cc3cccc(OC)c3)c(=O)c2=O)cc1 | 105 | 99 |
| CCOc1ccccc1NC(=O)Cn1c(=O)n(-c2ccc(Cl)cc2)c(=O)c2oc3ccccc3c21 | 104 | 105 |
| COc1ccccc1C1C=C(c2ccc(F)cc2)Nc2nc(-c3ccc(Cl)cc3)nn21 (stereo not given) | 114 | 116 |
| Cc1ccc(CNC(=O)CCCCCn2c(=O)c3sccc3n(CC(=O)N3CCCCC3C)c2=O)cc1 (stereo not given) | 107 | 107 |

The listing picks up, starting 4 compounds before the break.
SMILES	PV pol inh	PV pol inh intensity
COc1ccccc1C1C=C(c2ccc(F)cc2)Nc2nc(-c3ccc(Cl)cc3)nn21 (stereo not given)	114	116
Cc1ccc(CNC(=O)CCCCCn2c(=O)c3sccc3n(CC(=O)N3CCCCC3C)c2=O)cc1 (stereo not given)	107	107
CCc1ccc(NC(=O)CCn2nc(C)c(S(=O)(=O)N3CCCCC3)c2C)cc1	103	100
CCc1ccc(NC(=O)C2CCCN(S(=O)(=O)c3c(C)[nH]c(=O)[nH]c3=O)C2)cc1 (stereo not given)	100	102
Cc1ccc(NC(=O)C(NS(=O)(=O)c2ccc3c(c2)CCC(=O)N3)c2ccccc2)cc1C (stereo not given)	105	104
CCC(C)NC(=O)c1ccc2c(c1)N=C(C)c1cc(C)ccc1S2 (stereo not given)	110	99
CCOc1ccccc1-c1nnc(SCc2ccc(Cl)cc2)o1	108	105
COc1cccc(NC(=O)CSc2nc(C)c(Cc3ccccc3)c(=O)[nH]2)c1	106	103
Cc1ccccc1CN1c2ccccc2-c2nc(SCC(=O)NCCc3ccccc3)ncc2S1(=O)=O	106	113
O=S(=O)(c1cccc(Cl)c1)c1nnn2c1nc(NC1CCCCCC1)c1sccc12	105	94
Cc1cc(OCC(=O)Nc2ccc(C(=O)OC3CCCCC3)cc2)cc(C)c1Cl	106	108
Cc1cc(NC(=O)C2CCN(S(=O)(=O)c3c(C)noc3C)CC2)ccc1Br	113	117
CCOC(=O)c1cccc(NC(=O)C(C)n2c(C)c3cnn(-c4ccccc4)c(=O)c3c2C)c1 (stereo not given)	107	106
COc1cc2c(=O)c(C(=O)c3ccc(C)c(C)c3)cn(Cc3ccccc3)c2cc1OC	101	108
Cc1n[nH]c(C)c1S(=O)(=O)N1CCCC(C(=O)Nc2ccc(Br)cc2)C1 (stereo not given)	104	103
O=C(NCC(c1ccc2c(c1)OCO2)N1CCN(c2ccccc2F)CC1)c1ccccc1F (stereo not given)	112	115
CCc1cccc(C)c1Nc1c(-c2ccc(N(C)C)cc2)nc2ncccn12	125	229
CC(C)c1ccc(NC(=O)C2CCN(C(=O)c3ccc(F)cc3)CC2)cc1	108	113
CCC(CC)C(=O)NC1CC(=O)N(c2ccc3c(c2)OCCO3)C1 (stereo not given)	105	101
CCc1ccc(C(=O)c2cn(CC(=O)Nc3ccc4c(c3)OCO4)c3ccc(Cl)cc3c2=O)cc1	111	110
CC(C)OCCCNC(=O)c1cn(C)c2ccc(S(=O)(=O)N3CCCCCC3)cc2c1=O	107	110
CC1=C(C(=O)Nc2ccccc2C)C(c2ccco2)n2ncnc2N1 (stereo not given)	107	114
COc1ccc(C2=NC3(CCCCCC3)N(CC(=O)Nc3cccc(Cl)c3)C2=O)cc1	106	106
NC(=O)C1CCN(C(=O)c2ccc3c(c2)N(Cc2cccc(Cl)c2)C(=O)c2ccccc2S3(=O)=O)CC1	108	105
COCC(=O)Nc1c(C(=O)Nc2ccc(C)cc2)oc2ccccc12	104	108
COc1cccc(Nc2nc(-c3ccccc3)c3cc(C)ccc3n2)c1	106	110
CCOC(=O)C1CCCN(S(=O)(=O)c2cc(Br)cc3c2N(C(C)=O)CC3)C1 (stereo not given)	107	111
Cc1cc(C)cc(NC(=O)Cn2cc(C(=O)c3ccncc3)c(=O)c3cc(C)c(C)cc32)c1	118	127
O=C(O)c1ccc(NC(=O)c2cc(S(=O)(=O)N3CCCCC3)c(Cl)cc2Cl)cc1	103	100
CCOC(=O)N1CCc2c(sc3c2c(=O)n(Cc2ccccc2)c(=O)n3Cc2cccc(Cl)c2)C1	107	111
O=C(CCC1N=C2c3ccccc3N=C(SCC(=O)Nc3ccccc3F)N2C1=O)NCc1cccs1 (stereo not given)	116	126
COc1ccc(CNc2nc(-c3ccco3)nn2C(=O)CC(C)C)cc1	107	101
CCOc1cccc(-c2nc3ccccc3c(=O)o2)c1	102	105
Cc1ccccc1C(=O)Nc1ccc(OCc2cc(=O)n3ccccc3n2)cc1	108	119
Cc1ccc(CN2C(=O)c3ccccc3Sc3ccc(C(=O)NC4CCCC4)cc32)cc1	113	110
CCCn1nc(NC(=O)c2cccc(Cl)c2)c2cc3cccc(C)c3nc21	122	123
O=C(Nc1cccc(C(F)(F)F)c1)c1cc(-c2ccc(Cl)s2)nc2ccccc12	105	107
CCOC(=O)c1cccc(NC(=O)CCc2nc3cccnc3n2-c2ccccc2)c1	106	113
CCOc1ccc(S(=O)(=O)N(CC(=O)Nc2cccnc2)c2ccccc2)cc1	108	103
CSc1ncc(C(=O)N2CCN(c3cccc(Cl)c3)CC2)c(C)n1	107	115
CCCOc1ccccc1-c1nc(SCC(=O)c2ccccc2)n[nH]1	99	96
COc1ccccc1NC(=O)c1c(NC(=O)c2ccccc2F)sc2c1CCC2	103	101
CCOc1ccc(-c2nnc(SCC(=O)NCCc3ccccc3)nc2-c2ccc(OCC)c(OC)c2)cc1OC	106	97
Cn1nc(C(=O)N2CCN(c3ccc(Cl)cc3)CC2)c2c1-c1ccccc1SC2	110	110
Fc1cccc(NCc2cccn2-c2nnc(N3CCOCC3)s2)c1	109	113
COc1ccc(CNc2nc(-c3ccc(OC)cc3)cc(C(F)(F)F)n2)cc1	102	102

Source: PubChem (ICCB-Longwood Screening Facility, Harvard Medical School)
